HIV Env fusion – HIV envelope-mediated fusion inhibition; HeLa-JRFL Env/CEM21 cell fusion, luciferase; inhibition, % at 12.3 µM; 1.1% of 360,000 active; AID 651610;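 active = mean replicate inhibition score of at least 50 and every replicate individually at or above 50; inconclusive = only one of the two criteria met; inactive = mean below 50 and not all replicates reaching 50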;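 also: 0% = plate neutral controls and 100% = maraviroc near 300 nM; one replicate is shown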
CSC inhib – cancer stem cell inhibition. cancer stem cell-like cells viability, luminescence. inhibition, % at 7.5 µM. 1.1% of 300,000 active. AID 2717;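 active = mean at 75% or more and at least half the replicates too; inconclusive = mean and replicates disagree; tested in HMLE shEcad cells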;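 also: 0% = median of negative and 100% = median of positive control wells; the first replicate is given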
PABP FP inh – PABP-poly(A) binding inhibition; P11940; inhibition, % at 35 µM; 1% of 290,000 active; PABP-poly(A) RNA binding, fluorescence polarization; AID 2014;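 active = 50% or more with normal probe brightness, or confirmed in later tests; inconclusive = above 50% with abnormal brightness, or retests that disagree; inactive = below 50% or failed in later tests; about a fifth of its hits are not listed in these tables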;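 also: calls also rest on retests at 20 µM and on dose response follow-up; controls were probe without protein and protein plus probe with vehicle; some compounds called inactive have numbers as strong as hits; many hits fall short of the cut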
Target sequence (P11940 whole entry, looked up): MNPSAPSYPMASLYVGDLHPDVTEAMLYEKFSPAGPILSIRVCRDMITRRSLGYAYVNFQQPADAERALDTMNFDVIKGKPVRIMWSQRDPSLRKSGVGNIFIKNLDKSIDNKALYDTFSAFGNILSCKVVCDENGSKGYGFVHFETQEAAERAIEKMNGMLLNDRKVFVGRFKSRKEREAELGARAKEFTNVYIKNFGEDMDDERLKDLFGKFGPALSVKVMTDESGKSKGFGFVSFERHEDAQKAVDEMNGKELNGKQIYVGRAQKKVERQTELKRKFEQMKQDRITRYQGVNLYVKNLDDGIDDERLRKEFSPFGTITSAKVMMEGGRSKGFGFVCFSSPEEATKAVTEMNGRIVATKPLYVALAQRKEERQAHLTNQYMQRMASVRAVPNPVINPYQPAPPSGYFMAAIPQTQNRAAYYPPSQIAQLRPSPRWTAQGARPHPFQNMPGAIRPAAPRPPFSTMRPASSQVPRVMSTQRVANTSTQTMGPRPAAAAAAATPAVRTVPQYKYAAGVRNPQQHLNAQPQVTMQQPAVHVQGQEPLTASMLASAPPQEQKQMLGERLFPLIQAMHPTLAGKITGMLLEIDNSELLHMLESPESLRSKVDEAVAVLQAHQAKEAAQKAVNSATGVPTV
Yeast UUG start – modulators of start codon recognition fidelity in yeast | S. cerevisiae UUG-firefly luciferase reporter, luminescence/redox ratio | activity score, % at 18.7 µM | 0.13% of 350,000 active | AID 602363;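 active = replicate mean at a twofold rise or more, about +100% in these data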;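 also: firefly luciferase made from a UUG start codon reports start codon fidelity; reporter light over untreated wells divided by growth signal over untreated wells; some hits fall short of that in this replicate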
MT1-MMP act inh – blocks activation of human MT1-MMP; P50281; HT1080 RFP-PRO-GFP cells, GFP/RFP ratio fluorescence, overnight; percent of plate control window, DMSO zero; GFP/RFP ratio change, % at 20 µM; 0.061% of 360,000 active; AID 651647;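 active = GFP/RFP ratio change of at least 30% with cell ATP level not reduced by more than half and red fluorescence within 50% of control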; also: strong numbers were not always called active
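Material – HT1080 RFP-PRO-GFP cells · Control set – DMSO wells and RFP-L50D-GFP cells · Incubation – overnight cell settling, then overnight compound exposure, 37 °C, 5% CO2 · Compound dosing – single-point 20 µM compound, 1% DMSO · Read-out – GFP/RFP fluorescence ratio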
eIF4H FP inh – inhibitors of RNA binding by human eIF4H. Q15056. eIF4H fluorescence polarization binding assay. inhibition, % at 35 µM. 0.94% of 290,000 active. AID 2012;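 active = 50% or more with normal probe brightness, or confirmed in later tests; inconclusive = above 50% with abnormal brightness, or retests that disagree; inactive = below 50% or failed in later tests; about a fifth of its hits are not listed in these tables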;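 also: calls also rest on retests at 20 µM and on dose response follow-up; 0% = protein and probe with vehicle and 100% = probe without protein; strong numbers were not always called active; many hits fall short of the cut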
Rce1 inhib – inhibitors of yeast Ras-converting enzyme. 0.27% of 290,000 active. Q03530. AID 2563. calls only. yeast membranes, quenched prenylated peptide cleavage fluorescence;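 active = fall in fluorescence gain of 50% or more versus controls, with final raw signal at or below 3038400; inconclusive = same 50% fall but final raw signal above 3038400; inactive = fall in fluorescence gain under 50%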;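 also: plate controls were neutral control wells for no effect and wells lacking membranes for full effect; tested at 10 µM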
Target sequence (Q03530 whole entry, looked up): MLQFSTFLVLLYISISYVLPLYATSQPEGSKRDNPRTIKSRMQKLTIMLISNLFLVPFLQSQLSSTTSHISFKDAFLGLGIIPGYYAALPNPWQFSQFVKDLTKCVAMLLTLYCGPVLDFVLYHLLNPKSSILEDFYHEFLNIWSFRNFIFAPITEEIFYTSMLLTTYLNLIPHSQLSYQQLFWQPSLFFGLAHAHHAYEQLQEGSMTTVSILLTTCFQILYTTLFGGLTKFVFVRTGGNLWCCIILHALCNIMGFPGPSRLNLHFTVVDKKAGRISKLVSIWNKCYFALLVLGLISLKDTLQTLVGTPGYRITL
eIF4H FP inh retest – further read-out of eIF4H FP inh, marked with its call; inhibition, %; compound at 20 µM; confirmation average;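 mean of two retest wells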
PABP FP inh retest – second read-out of PABP FP inh, no call of its own (marks repeat the call); inhibition, %; compound at 20 µM; confirmation repeats;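 mean of two retest wells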
MT1-MMP act inh RFP – further read-out of MT1-MMP act inh, marked with its call; RFP signal change, %; measured here: RFP expression control read;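 0 = vehicle wells; hits needed this value within 50% of zero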
* = called active by the depositor; i = inactive; u = inconclusive; x = no result given. The list is partial; rates above refer to the full screens.

SMILES	HIV Env fusion	CSC inhib	PABP FP inh	Yeast UUG start	MT1-MMP act inh	MT1-MMP act inh RFP	eIF4H FP inh	Rce1 inhib	others
Cc1ccc(NC(=O)COC(=O)C2CC2)c(Br)c1	-5	13	5	-5	1	3	-1	i
CC(NC(=O)COC(=O)c1cn(-c2ccccc2)nc1-c1cccs1)c1ccccc1 (configuration not stated)	13	9	1	-1	-8	-3	22	i
O=C(COC(=O)c1cncc(Br)c1)NC1CCCC1	-7	0	-4	-17	0	0	-1	i
CCOc1ccccc1C1c2[nH]c3ccccc3c2C[C@H]2C(=O)N(C3CCN(Cc4ccccc4)CC3)CC(=O)N12 (some centres not stated)	18	8	2	4	-4	-5	-12	i
Cc1ccc(C2C3CSCC=C3C(C#N)=C(N)C2(C#N)C#N)cc1 (configuration not stated)	x	6	20	x	-113	6	72	i	eIF4H FP inh retest=-8;PABP FP inh retest=4
CCCC(=O)Nc1nnc([C@H]2C[C@H](O)[C@@H](CO)O2)s1	15	x	x	-11	-1	4	x	x
CC(C)(C)c1ccc(Oc2cccc(C3CC(=O)C(C4NCCc5ccccc54)C(=O)C3n3cncn3)c2)cc1 (configuration not stated)	x	-9	-3	-15	-14	1	4	i
C[C@@H]1COC(=O)[C@@H](Cc2ccc(F)cc2)CC/C=C\C[C@@H](CC(=O)NCCO)C(=O)N1	12	-5	x	17	1	3	x	x
CC(C)(C)c1ccc(C(=O)N2CCC2(C)C(=O)Nc2cccc3ccccc23)cc1 (configuration not stated)	30	x	x	-12	-6	-13	x	x
Cc1ccc(S(=O)(=O)NCc2ccccc2)s1	-12	-6	12	-18	2	2	0	i
CC(C)CC(=O)NC(=S)Nc1ccccc1C(F)(F)F	-2	1	69	-27	-3	-1	-5	i	eIF4H FP inh retest=-9;PABP FP inh retest=3
Cc1cc(NC(=O)CCC(=O)N(Cc2cccs2)C(C(=O)NC2CCCC2)c2ccncc2)no1 (configuration not stated)	13	x	0	-7	5	1	-6	i
CCN(CC(=O)Nc1ccccc1OC)C(=O)CCOc1ccc(C(C)(C)C)cc1	16	7	x	15	3	-1	x	i
Cn1nc(C(F)(F)F)c(/C=N/OC(=O)c2ccc(Cl)cc2)c1Cl	13	-4	13	-18	4	2	1	i
CCOc1ccc(C2CC(c3cccc(OC)c3OC)n3nnnc3N2)cc1Cl (configuration not stated)	x	-8	13	x	1	1	0	i
O=C(COC(=O)COc1ccc(Cl)cc1Br)NCc1cccs1	-20	-11	12	x	2	5	4	i
COc1cc(Cl)c(C)cc1N1C(=O)CN(Cc2ccccc2)C1=S	3	17	4	-8	-5	-3	-6	i
CCn1c(SCC(=O)N2c3ccccc3Sc3ccccc32)nnc1-c1ccco1	x	34	6	-10	-6	-1	0	i
OC[C@@H]1CN(Cc2ccc(Cl)cc2)C[C@H](n2cnc3c(NCc4ccco4)ncnc32)O1	-8	x	x	0	1	0	x	x
COc1ccc(NC(=O)NC2(C(=O)N3CCCC3)CCCCC2)cc1	-10	-14	-8	-22	-4	-1	2	x
Cc1ccc(S(=O)(=O)N2CCOCC2)cc1C(=O)NC(=S)N1CC(C)CC(C)C1 (configuration not stated)	-15	x	-3	x	2	0	5	i
CS(=O)(=O)N1Cc2ccccc2CC1C(=O)OCC(=O)NCCc1ccc(S(N)(=O)=O)cc1 (configuration not stated)	-133	2	x	-8	4	0	x	x
O=C(CC(=O)NCc1ccc(Cl)cc1)NCc1ccc(Cl)cc1	3	-6	4	-6	0	-2	-9	i
O=C(CSc1ccc(-c2cccnc2)nn1)N1CCCc2ccccc21	26	-8	-8	x	x	x	18	i
Cc1cc(C)nc(NC(=S)NC(=O)c2ccccc2F)n1	10	-3	x	-15	2	-4	x	i
COc1ccc(C2C(C(=O)N3CCN(C)CC3)c3cc(OC)c(OC)cc3C(=O)N2C)cc1 (configuration not stated)	-10	-15	11	-10	0	0	1	i
O=C1c2cccc3c(N4CCCCC4)ccc(c23)C(=O)N1CCO	-382	-2	u	-5	-231	-3	u	i
COc1ccc(/C=N/NC(=O)c2ccc(CN3C(=O)c4cccc5cccc3c45)cc2)cc1O	-3	41	3	x	11	10	-2	i
COc1ccccc1OCCOc1ccc(/C=C2/C(=N)N3OC(C)=CC3=NC2=O)cc1OC	-47	5	-8	-16	-8	-5	-8	i
Clc1ccc(OCc2nnc(SCCN3CCCCC3)n2Cc2ccco2)cc1	35	72	16	-12	0	-2	-1	i
Cc1[nH]n(S(=O)(=O)c2ccccc2)c(=O)c1N=Nc1cccc(Cl)c1	6	6	3	-15	5	0	0	i
CCOc1ccccc1N(CC(=O)Nc1ccc(OC)cc1OC)S(=O)(=O)c1ccccc1	6	5	8	-29	4	2	3	i
C=CCNc1nc(Nc2ccc(-c3nc4ccccc4o3)cc2)nc(N2CCOCC2)n1	x	61	2	-3	3	-3	-6	i
Cc1nn(Cc2ccc(F)cc2)c(C)c1NC(=O)c1cc(-c2ccco2)on1	x	-2	-4	x	-7	-6	-8	i
CCCNC(=O)c1onc(CSc2ccc(F)cc2)c1C(=O)NC(C)C	3	-2	x	-14	9	5	x	i
CCOc1ccccc1NC(=O)C(C)CC (configuration not stated)	6	-3	22	x	3	3	-5	i
COC(=O)c1ccc(/C=C(\C#N)c2ccccn2)cc1	-150	13	-5	-2	0	-4	3	i
CCOc1ccc(OCC)c(NC(=O)c2ccc(CNc3c(N4CCOCC4)c(=O)c3=O)cc2)c1	x	-12	1	x	17	5	-1	i
Cc1nnc(SCC(=O)NNC(=O)CC#N)[nH]c1=O	-8	0	-12	x	3	4	4	i
COc1cccc(C(=O)COc2ccc3ccc(=O)oc3c2)c1	-5	12	3	-14	1	-1	-3	i
CCCSCCCNC(=O)Cn1c(=O)c2cccn2c2ccccc21	-14	-11	-3	-14	1	-8	0	i
CC1CC(C)CN(CC(=O)c2c[nH]c3ccccc23)C1 (configuration not stated)	1	-9	u	0	-16	3	u	i
Cc1nn(CC2CC2)c(=O)n1-c1ccc(Oc2ccccc2)cc1	28	-8	-8	x	-3	-15	0	i
CC1(C(=O)O)CCC(C(=O)NCCc2ccccc2)C1(C)C (configuration not stated)	x	-1	30	-22	4	5	-2	i
COc1ccc(C(CC(=O)O)N2Cc3ccccc3C2=O)cc1 (configuration not stated)	5	-9	-1	-1	1	7	-11	i
Cc1cccc(NC(=O)CSCC(=O)NCc2ccco2)c1	24	-6	-7	-13	-3	0	-10	i
COc1ccc(Cl)cc1Cn1c(C)c(C(=O)NCc2ccc3c(c2)OCCO3)sc1=O	10	x	x	-28	7	-5	x	x
COc1cccc(OC)c1C(=O)Nc1nc(-c2ccccc2)cs1	12	16	3	-6	-1	-3	1	i
O=S(=O)(Nc1ccc2c(c1)OCO2)c1ccc(F)c(F)c1	-3	x	x	10	2	5	x	x
COc1ccc(OC)c(CCNC(=O)CS(=O)(=O)Cc2nc(-c3ccccc3Cl)oc2C)c1	9	-11	9	-10	-2	-1	-10	i
CC(=O)Nc1ccc(NC(=O)c2ccccc2C)cc1	x	x	-5	-22	2	4	-14	i
CC(C)(C)C1CCC(C(=O)OCC(=O)N2CCOCC2)CC1 (configuration not stated)	-5	-15	14	x	2	0	6	i
Cc1ccc(OCC(=O)NC(C)c2ccccc2)c([N+](=O)[O-])n1 (configuration not stated)	4	-1	51	x	-1	0	-4	i	eIF4H FP inh retest=-3;PABP FP inh retest=-7
CCN1CCN(CCC(=O)Nc2ccccc2C)CC1	-30	-6	-8	16	-2	-1	-7	i
CCN(CC)c1ccc(S(=O)(=O)N2CCOCC2)cc1NC(=O)CN1C(=O)NC2(CCC(C)CC2)C1=O (configuration not stated)	6	-13	x	-4	-4	-8	x	i
COC(=O)c1ccc(NN=Nc2ccc(C)cc2)cc1	x	-7	2	-8	4	5	-8	i
Cc1cc(C(=O)COC(=O)c2ccc3c(c2)NC(=O)CS3)c(C)n1CC1CCCO1 (configuration not stated)	16	x	-3	-2	0	-2	21	i
COc1ccc(CCNC(=O)CSc2nc3[nH]ncc3c(=O)n2-c2ccc(Cl)cc2Cl)cc1OC	13	-2	-15	x	1	3	-8	i
CCCOc1ccc(C(=O)NNC(=S)NC(=O)c2ccco2)cc1	23	34	1	x	-1	-9	0	i
COc1ccc(NS(=O)(=O)c2ccc(Br)cc2)cn1	-1	0	11	-12	0	-2	-4	i

Structures from the list above that contain a cyano group, in the order listed:
SMILES	HIV Env fusion	CSC inhib	PABP FP inh	Yeast UUG start	MT1-MMP act inh	MT1-MMP act inh RFP	eIF4H FP inh	Rce1 inhib	others
Cc1ccc(C2C3CSCC=C3C(C#N)=C(N)C2(C#N)C#N)cc1 (configuration not stated)	x	6	20	x	-113	6	72	i	eIF4H FP inh retest=-8;PABP FP inh retest=4
COC(=O)c1ccc(/C=C(\C#N)c2ccccn2)cc1	-150	13	-5	-2	0	-4	3	i
Cc1nnc(SCC(=O)NNC(=O)CC#N)[nH]c1=O	-8	0	-12	x	3	4	4	i

Other compounds:
SMILES	HIV Env fusion	CSC inhib	PABP FP inh	Yeast UUG start	MT1-MMP act inh	MT1-MMP act inh RFP	eIF4H FP inh	Rce1 inhib	others
CCn1c(CNC(=O)c2ccc(OC)cc2)nnc1SCC(=O)c1ccccc1	x	4	24	-12	3	6	17	i
CCOC(=O)c1cc2sccc2n1CC(=O)N1CCCc2ccccc21	x	-9	-3	4	-3	-6	1	i
Cc1nonc1NC(=O)CSc1cn[nH]n1	0	-5	-4	-16	1	6	-8	i
Cc1nc2c(-c3ccccc3)c(C)nn2c(C)c1CCC(=O)NCc1ccco1	10	2	-2	24	-3	-8	2	x
CCn1c2ccccc2c2nnc(SCC(=O)NCc3cccs3)nc21	18	x	11	-11	5	1	-1	i
Cn1c(=O)n(C)c2cc(N3CCOCC3)c(NC(=O)c3cccc(Cl)c3)cc21	-10	-13	-5	-6	6	2	-10	i
CC1=C/C(=N\NC(=O)c2cccs2)CC(C)(C)C1	-3	-12	-1	x	0	1	-5	i
C(=N\Nc1nncc2ccccc12)/c1ccccc1	-334	-1	18	x	1	1	3	x
CS(=O)(=O)N(CC(=O)N1CCN(Cc2ccccc2)CC1)c1cccc([N+](=O)[O-])c1	16	-21	3	-11	-2	-3	-4	i
O=C(c1cc2ccccc2cc1O)N1CCN(c2cccc(Cl)c2)CC1	x	25	x	x	-3	4	x	i
COc1ccc(Nc2nc3cc(C)ccc3cc2C#N)cc1	-6	-4	u	-22	-26	-1	u	i
O=C(COC(=O)c1ccccc1NC(=O)c1ccco1)Nc1ncc(Cl)cc1Cl	x	-8	12	-9	-4	3	2	i
O=C(Nc1cccc(Cl)c1Cl)c1ccc(-c2ccccc2)cc1	x	-13	-2	x	3	6	-14	i
Cc1ccccc1OCC(=O)Nc1cccc(S(=O)(=O)NC2=NCCC2)c1	4	x	x	-3	-3	-1	x	x
O=C(CN1CCCC1)Nc1sc2c(c1C(=O)Nc1ccccc1)CCCC2	-8	-13	-8	-15	-5	0	-2	i
O=S(=O)(NCCc1ccccc1)c1ccc(Cl)nc1	13	-13	-4	7	2	-1	-13	i
COc1cccc(N2C(=O)CC(N3CCN(CCN=CC4=C(O)CC(C)(C)CC4=O)CC3)C2=O)c1 (configuration not stated)	3	-17	4	-3	-2	-1	2	i
Cc1ccc(C)c(NC(=O)c2cc(-c3cc(C)c(C)cc3O)n[nH]2)c1	-40	18	3	-2	4	0	2	i
O=C(NCC1CCCO1)C1CCN(C2CCN(Cc3cccs3)CC2)CC1 (configuration not stated)	9	-21	-10	-17	-2	5	3	i

Source: PubChem (several laboratories)
